Source: PubChem
VCAM-1 rise – boosters of cytokine-driven VCAM-1 levels – cell-based, plate reader, pooled HUVEC, TNFa stimulus (AID 455). HUVEC TNFa-induced VCAM-1 immunofluorescence, plate reader; numbers were filed only for top-ranked candidate wells. augmentation, % at 5 µM. 10,000 tested, 0.2% active;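 active means a compound raising TNF-alpha-driven VCAM-1 surface staining, with its hit status upheld on visual or statistical review; inactive means the rest, including hits rejected on review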;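 further: 0% = TNFa with vehicle and 100% = strongest image-checked hit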
Proteasome disasm – blocks ATP-dependent breakdown of the yeast 26S proteasome. inhibition of disassembly, % (test concentration not listed). AID 751. 24,000 tested, 0.2% active. anti-FLAG beads, GFP-proteasome disassembly, flow cytometry;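 active means above 40%; inconclusive means likely self-fluorescent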;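 further: plate controls were ATP control with full disassembly for no effect and ATP-gamma-S intact proteasomes for full effect; higher percent means more bead fluorescence retained so stronger block of disassembly; stock transfer was 100 nL into about 10 µL; wells with too few beads may also be inconclusive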
* hit, by the source's call; i = inactive; ? = inconclusive; nt = no result given. This is a subset; rates above refer to the full screens.

SMILES | VCAM-1 rise | Proteasome disasm
CCOC(=O)c1sc2nc(CC(=O)OC)nc(NCCN3CCOCC3)c2c1C | nt | -1.6
O=C(OCC(=O)N1CCc2ccccc21)C1=COCCO1 | i | 0.5
CCn1c(SCC(=O)NCCc2ccc(Cl)cc2)nnc1-c1cccs1 | i | 1.8
CCOC(=O)N1CCC(N2C(=O)c3ccccc3C2Nc2ccc(Cl)cn2)CC1 (configuration not stated) | nt | 2.3
COc1ccccc1CNC(=O)c1ccc(CS(=O)(=O)c2ccccc2OC)o1 | nt | -2.2
N#CC1=C(N)Oc2n[nH]c(-c3ccc(F)cc3)c2C1c1cccc(OC(=O)N2CCOCC2)c1 (configuration not stated) | nt | 0.7
CCOC(=O)C(C)n1cnc2c(oc3ccccc32)c1=O (configuration not stated) | nt | 0.3
Cc1c(C(=O)O)oc2ccc(S(=O)(=O)NCc3ccc(F)cc3)cc12 | nt | -1.0
COC(=O)c1[nH]c2ccc(C)cc2c1NC(=O)CN1CCCC(C)(C)C1 | i | -5.2
CCOC(=O)C1CCCN(C(=O)C2CCCN(S(C)(=O)=O)C2)C1 (configuration not stated) | nt | -0.9
O=C(CCNS(=O)(=O)c1cccc2nonc12)N1CCN(c2cccc(Cl)c2)CC1 | nt | 1.3
O=C(CSc1nnc2sc3ccccc3n12)NCc1ccco1 | nt | 0.1
CCOc1ccc(-n2c(=O)cc(N3CCN(c4ccccc4)CC3)[nH]c2=O)cc1 | i | -0.8
O=C(Oc1cc2oc(=O)c3c(c2cc1Cl)CCCC3)c1ccco1 | i | -2.8
CCOC(=O)N1CCN(c2cc3[nH]c(=S)[nH]c3cc2F)CC1 | i | -0.4
CS(=O)(=O)N1CCCC(C(=O)NCc2ccc(F)cc2Cl)C1 (configuration not stated) | nt | 1.8
CCOC(=O)C1CCCN(C(=O)Cc2c(C(=O)O)[nH]c3ccccc23)C1 (configuration not stated) | nt | -1.1
COCc1cc(=O)[nH]c(Nc2nc3ccccc3o2)n1 | i | 0.9
COc1ccc(-n2c(Cc3cccn3C)nnc2SCC(=O)Nc2ccc(Cl)cc2)cc1 | i | 2.3
CCOC(=O)c1ccc(S(=O)(=O)N2CCN(CCC#N)CC2)cc1 | nt | ?
COC(=O)c1cc(Br)c(=O)n(CCC2=CCCCC2)c1 | i | -3.8
Cn1c(C(=O)NCCCN2CCN(c3ccccc3F)CC2)cc2c(=O)n(C)c3ccccc3c21 | nt | -2.0
O=S(=O)(Nc1cccc(C(F)(F)F)c1)c1cnc[nH]1 | nt | -1.4
COc1cccc(Oc2ccc(N)cc2)c1 | i | ?
O=C(C1CC2CCC1C2)N1CCN(Cc2ccc3c(c2)OCO3)CC1 (configuration not stated) | i | -0.6
C/C(=N\O)C(=O)NCCCNCCCN(C)C | i | 0.2
COC(=O)C1CCCN1C(=O)C1CCCN1C(=O)CNC(=O)OCc1ccccc1 (configuration not stated) | nt | -0.3
COc1ccccc1N1CCN(CC(O)c2ccc3cc[nH]c3c2)CC1 (configuration not stated) | i | -0.8
C#CC(C)(C)NC(=O)c1ccccc1OC | nt | -1.8
Cc1ccc(OCC(=O)Nc2cc(-c3nn4c(C)nnc4s3)ccc2C)cc1 | nt | 1.1
COc1ccc(S(=O)(=O)Nc2ccc3c(c2)OCO3)cc1OC | nt | -1.0
CN1C(=O)c2ccccc2C(C(=O)NCCCN2CCCC2)C1c1c[nH]c2ccccc12 (configuration not stated) | nt | 1.8
Oc1ccc(-c2nc3cnccn3c2Nc2ccc3c(c2)OCCO3)cc1 | nt | 0.2
Cn1c(=O)c(=O)n(C)c2cc(S(=O)(=O)NCCc3ccccc3)ccc21 | nt | 1.4
Cc1[nH]nc2c1C(CCc1ccccc1)C(C#N)=C(N)O2 (configuration not stated) | i | 1.3
CCN(CC)CCn1c(SCC(=O)NCc2ccco2)nc2c(sc3ccccc32)c1=O | nt | -2.0
Cn1cccc1Cc1nnc(SCC(=O)N2CCCC2)n1CCc1ccccc1 | nt | 0.6
CC1(C)C(=O)Nc2ccccc2N1C(=O)COC(=O)Cn1cnc2ccccc2c1=O | i | 1.5
COc1cccc(OCCn2ccnc2)c1 | i | 1.1
CC(=O)c1ccc(NC2c3ncccc3C(=O)N2Cc2ccc(F)cc2)cc1 (configuration not stated) | nt | -2.6
CCOC(=O)C1(C(=O)OCC)C(c2ccccc2)CC(O)N1C(C)=O (configuration not stated) | i | -0.7
COc1cc(N2CCOCC2)ncn1 | nt | -2.7
Cc1ccccc1C1CC(=O)NC2=C1C(=O)CCC2 (configuration not stated) | nt | -2.5
CCOc1ccc(N2CC(C(=O)NCc3cccc(C)c3)CC2=O)cc1 (configuration not stated) | nt | -1.4
Cn1cccc1Cc1nnc(SCC(=O)NCc2ccco2)n1CCc1ccccc1 | nt | 1.9
O=C(Nc1ccc2c(c1)OCO2)C1CCN(S(=O)(=O)c2cccs2)CC1 | nt | 1.6
CC(C)(C)NC(=O)C(Cc1ccccc1)NS(=O)(=O)c1ccc2c(c1)CCC(=O)N2 (configuration not stated) | nt | -0.9
N#CC1=C2SCN(Cc3ccco3)CN2C(=O)CC1c1c(F)cccc1Cl (configuration not stated) | nt | -0.1
COc1ccc(C(C(=O)NC2CCCC2)N2CCc3ccccc32)cc1 (configuration not stated) | nt | ?
Cc1ccc(-n2c3c(cc(C(=O)NC4CCSC4=O)c2=O)C(=O)CC(C)(C)C3)cc1 (configuration not stated) | i | 1.4
O=C(NCc1cccnc1)C1CCN(S(=O)(=O)c2cccnc2)CC1 | nt | 0.2
Cc1cccc(-n2ccnc2SCC(=O)Nc2ccc3c(c2)OCCO3)c1 | nt | -0.4
Cc1cc(C)n(-c2nnc(C)n2/N=C/c2ccccc2F)n1 | i | -1.8
CCC(=O)N1CCc2cc(S(=O)(=O)NCCN3CCCCC3CC)ccc21 (configuration not stated) | nt | -1.1
Nc1ccc(S(=O)(=O)Nc2ncccn2)cc1 | i | 0.4
COc1ccc(N2CCN(C(c3ccccc3)c3sc4nc(C)nn4c3O)CC2)cc1 (configuration not stated) | i | 0.8
CCn1c(N)c(C(=O)N2CCOCC2)sc1=S | nt | -0.1
CCCCC(CC)CNS(=O)(=O)c1ccc2c(c1)CCN2C(=O)CCC(=O)O (configuration not stated) | nt | 2.7
CCOC(=O)c1[nH]c2c(c1C)C(=O)CC(c1ccc(OC)c(OC)c1)C2 (configuration not stated) | nt | -0.3
CC(=O)OCCNc1cc(N2CCN(C)CC2)c2noc3c2c1C(=O)c1ccccc1-3 | i | -3.4

Of the compounds above, 3 have a COOH group:
SMILES | VCAM-1 rise | Proteasome disasm
Cc1c(C(=O)O)oc2ccc(S(=O)(=O)NCc3ccc(F)cc3)cc12 | nt | -1.0
CCOC(=O)C1CCCN(C(=O)Cc2c(C(=O)O)[nH]c3ccccc23)C1 (configuration not stated) | nt | -1.1
CCCCC(CC)CNS(=O)(=O)c1ccc2c(c1)CCN2C(=O)CCC(=O)O (configuration not stated) | nt | 2.7

Compounds above that contain two or more sulfur atoms:
SMILES | VCAM-1 rise | Proteasome disasm
CCn1c(SCC(=O)NCCc2ccc(Cl)cc2)nnc1-c1cccs1 | i | 1.8
O=C(CSc1nnc2sc3ccccc3n12)NCc1ccco1 | nt | 0.1
CCN(CC)CCn1c(SCC(=O)NCc2ccco2)nc2c(sc3ccccc32)c1=O | nt | -2.0
O=C(Nc1ccc2c(c1)OCO2)C1CCN(S(=O)(=O)c2cccs2)CC1 | nt | 1.6
CCn1c(N)c(C(=O)N2CCOCC2)sc1=S | nt | -0.1

(listing goes on)
SMILES | VCAM-1 rise | Proteasome disasm
CCOC(=O)C1=C(O)C(Nc2nccs2)(C(F)(F)F)N=C1C (configuration not stated) | nt | -0.8
Cc1cc(=O)n2nc(N3CCCC3C(=O)NCCCN3CC(C)CC(C)C3)sc2n1 (configuration not stated) | nt | -1.8
Cc1cnc(C(=O)OCC(=O)Nc2ccc(Oc3ccccc3)cc2)cn1 | i | -3.1
COCC(=O)N(Cc1ccccc1)c1ccccn1 | i | 0.4
O=C(NCc1ccco1)c1ccc2c(c1)N(Cc1ccccc1)C(=O)CS2=O (configuration not stated) | nt | 0.9
COc1ccc(NC(=O)C2CCCCN2S(=O)(=O)c2ccc(F)cc2)cc1 (configuration not stated) | i | 0.9
CCC(=O)NCCc1cc2cc(C)c(C)cc2[nH]c1=O | nt | -2.1
CCN(C(=O)c1coc(=O)c2ccccc12)c1cc(OC)ccc1OC | nt | 0.5
Cc1cccc(-c2noc(CCc3ccccc3)n2)c1 | nt | -0.7
Cc1cc2ccccc2c(=O)n1CC(=O)Nc1ccc2c(c1)OCO2 | i | -0.6
N#CC1=C(N)N(c2ccc(Oc3ccccc3)cc2)C(=O)C1 | i | -1.3
CCSCc1nnc(SCC(=O)Nc2cccc(SC)c2)n1C | i | -0.9
COc1cc2[nH]c(=O)n(CCC(=O)N3CCN(c4cccc(C)c4C)CC3)c(=O)c2cc1OC | nt | -3.4
CCN(CC)CCN1C(=O)C(=O)/C(=C(/O)c2c(C)[nH]c(C(=O)OC)c2C)C1c1ccco1 (configuration not stated) | i | -0.9
O=C(COC(=O)c1cc(-c2ccco2)nc2ccccc12)NCc1ccc2c(c1)OCO2 | i | 12
Oc1cccc(Nc2nc(NCC3CCCO3)c3ccccc3n2)c1 (configuration not stated) | i | 0.9
CCC(C)NC(=O)CC(NS(=O)(=O)c1ccc(Cl)cc1)c1ccco1 (configuration not stated) | nt | 0.9
CCSc1nnc(Cn2c(=O)sc3ccccc32)n1-c1ccc(OC)cc1 | nt | -0.5
Cc1ccc(S(=O)(=O)C2(C(=O)N3CCCC(C)C3)CC2)cc1 (configuration not stated) | nt | -2.0
COC(=O)c1ccc(NC(=O)CCn2cccc2)cc1 | nt | -1.3
Cc1cc(C)nc(/N=C2\NC(=O)CC(C(=O)O)N2CCc2c[nH]c3ccccc23)n1 (configuration not stated) | nt | -1.5
CCCC1(C(=O)O)NC(c2ccccc2O)C2C(=O)N(Cc3ccccc3)C(=O)C21 (configuration not stated) | nt | -6.5
CC1(C)S[C@@H]2[C@H](NC(=O)[C@H](C(=O)O)c3ccsc3)C(=O)N2[C@H]1C(=O)O | i | 2.2
Cc1cc(NC(=O)CSc2nc(C3CCCCC3)nc3ccccc23)no1 | i | -3.9
CCCC1c2ccc(C)n2CCN1C(=O)Nc1ccccc1Cl (configuration not stated) | i | 10
COCCN(CCOC)C(=O)c1sc2nc(-c3ccccc3)cn2c1C | i | -0.2
COc1ccc(NC(=O)C2CCCN(S(=O)(=O)c3c(C)n[nH]c3C)C2)c(OC)c1 (configuration not stated) | nt | -1.5
Cc1ccccc1CSc1nc2c(c(=O)[nH]1)CCC2 | nt | -0.6
CCOC(=O)CNc1nc(OCC#N)nc(N2CCOCC2)n1 | nt | -0.9
CCCc1cc(=O)[nH]c(SCC)n1 | nt | 2.3
CN1CCN(CCCNC(=O)c2ccc(CS(=O)(=O)c3ccc(Br)cc3)o2)CC1 | nt | -0.4
CCn1cc(C(=O)N2CCOCC2)c(=O)c2cc(S(=O)(=O)N(C)C)ccc21 | nt | 3.9
Cc1cccnc1NC(=O)CCCN1C(=O)c2ccccc2C1=O | i | -1.2
Cc1ccc(C)c(-n2c(CNC(=O)c3ccco3)nnc2SCC(=O)N2CCc3ccccc32)c1 | nt | 0.3
O=C(c1ccc(COCC(F)(F)F)o1)N1CCCCCC1 | nt | -0.5
CCOc1ccc(NC(=O)Cn2nnc(C(=O)NCc3ccccc3OC)c2N)cc1 | nt | 0.6
Cc1ccc(-c2noc(CCC(=O)NCCN3CCN(Cc4ccccc4)CC3)n2)cc1 | nt | 0.5
CCn1cc(C(=O)NCc2ccco2)c(=O)c2cc(S(=O)(=O)N3CCC(C)CC3)ccc21 | nt | -2.7
CC1CCN(CC(O)COc2ccc(F)cc2)CC1 (configuration not stated) | nt | -2.2
CCC1CCCCN1C(=O)CSc1nnc(-c2ccc(Cl)s2)o1 (configuration not stated) | nt | 0.1
Cc1cc(=O)c2c(O)c(O)ccc2o1 | nt | -0.1
CSC1=C(C#N)C(c2ccc(Cl)cc2)C2=C(CC(C)(C)CC2=O)N1 (configuration not stated) | i | 0.4
COc1ccc(N2CCN(c3oc(COc4ccccc4)nc3C#N)CC2)cc1 | i | -0.6
COc1cc(C(=O)NCCC(=O)NCCCN2CCCCC2)cc(OC)c1OC | nt | -6.8
O=C(NCCCN1CCC(Cc2ccccc2)CC1)C1CCN(S(=O)(=O)N2CCOCC2)CC1 | nt | 1.9
O=C1CCc2cc(S(=O)(=O)N3CCC(C(=O)NCCC4=CCCCC4)CC3)ccc2N1 | nt | -0.3
O=C(O)CCCCCn1c(SCC(=O)N2CCCC2)nc2ccsc2c1=O | nt | 2.7
COc1ccc(-c2cn3c(C)c(C(=O)Nc4cccc(C)n4)sc3n2)cc1 | nt | 10
COc1ccc(C2=NOC(C(=O)Nc3c(C)n(C)n(-c4ccccc4)c3=O)C2)cc1OC (configuration not stated) | nt | 0.2
CCC(=O)N1CCc2cc(S(=O)(=O)NCCCOC)ccc21 | nt | 0.2
O=C(OCn1nnc2ccccc2c1=O)C1CCN(S(=O)(=O)c2cccs2)CC1 | i | 0.1
CCN(CC)c1ccc(NC(=O)c2[nH]c(C)c(C(C)=O)c2C)c(C)c1 | i | 0.2
CCOc1ccc(-n2c(SCc3ccc(C(=O)OC)o3)nc3c(c2=O)SCC3)cc1 | nt | 0.1
COCC(=O)N(Cc1nc2ccccc2c(=O)[nH]1)Cc1cccs1 | i | 0.5
Cc1[nH]c2ccccc2c1SCCNC(=O)c1ccc(Br)o1 | nt | -1.8
O=c1c2cnn(-c3ccccc3)c2ncn1Cc1ccccn1 | nt | -0.4
CCOC(=O)Cc1csc(NC(=O)C2CCCCC2C(=O)O)n1 (configuration not stated) | nt | -0.8
